GALR2 ag: GALR2 (human) receptor agonism; O43603; GALR2-expressing cells, agonist activation read-out; activation, %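 (tested at 5 µM)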; 140,000 compounds, 0.48% hits;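 active = above mean plus 3 SD of all compounds, about 5% in these data, not always enough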;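 note: 0% = vehicle buffer wells and 100% = reference agonist at full effect; tested in CHO reporter cells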
Target sequence (O43603 whole entry, looked up): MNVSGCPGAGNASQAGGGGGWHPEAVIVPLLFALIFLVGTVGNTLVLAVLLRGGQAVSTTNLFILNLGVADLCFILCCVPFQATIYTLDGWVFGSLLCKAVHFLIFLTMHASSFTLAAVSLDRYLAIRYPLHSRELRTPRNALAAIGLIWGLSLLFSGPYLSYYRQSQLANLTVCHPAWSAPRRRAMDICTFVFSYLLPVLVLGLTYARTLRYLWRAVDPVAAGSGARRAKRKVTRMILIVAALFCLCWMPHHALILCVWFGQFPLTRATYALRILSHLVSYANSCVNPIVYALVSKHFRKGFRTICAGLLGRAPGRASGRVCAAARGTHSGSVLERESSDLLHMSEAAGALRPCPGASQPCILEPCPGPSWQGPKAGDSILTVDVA
PKD1 inh: PKD1 (human) kinase inhibition; Q15139; PKD1 kinase fluorescence polarization assay; inhibition, %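 (about 10 µM by stock and volumes)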; 200,000 compounds, 0.056% hits;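 active = inhibition of 50% or more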;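 note: controls were vehicle for no effect and a reference inhibitor for full effect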
RGS16-Gao: modulates binding between human RGS16 and Galphao; bead-based flow cytometry RGS16-Galphao binding, fluorescence; actives lie on both sides; binding response (% of control), % at 10 µM; 220,000 compounds, 0.38% hits; AID 1441;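 active = below 25% or above 175%, edge rows of some plates excepted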;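 note: Galphao activated by GDP with aluminum fluoride before binding; 100% = wells without compound and 0% = beads without RGS; some results beyond the cut were filed as inactive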
Target sequence (O15492 whole entry, looked up): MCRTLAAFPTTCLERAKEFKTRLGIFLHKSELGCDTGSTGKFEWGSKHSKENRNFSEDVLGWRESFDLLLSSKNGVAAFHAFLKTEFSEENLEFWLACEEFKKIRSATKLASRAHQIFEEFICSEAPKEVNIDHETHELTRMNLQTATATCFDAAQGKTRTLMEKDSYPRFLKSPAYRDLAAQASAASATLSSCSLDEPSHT
Target sequence (P09471 whole entry, looked up): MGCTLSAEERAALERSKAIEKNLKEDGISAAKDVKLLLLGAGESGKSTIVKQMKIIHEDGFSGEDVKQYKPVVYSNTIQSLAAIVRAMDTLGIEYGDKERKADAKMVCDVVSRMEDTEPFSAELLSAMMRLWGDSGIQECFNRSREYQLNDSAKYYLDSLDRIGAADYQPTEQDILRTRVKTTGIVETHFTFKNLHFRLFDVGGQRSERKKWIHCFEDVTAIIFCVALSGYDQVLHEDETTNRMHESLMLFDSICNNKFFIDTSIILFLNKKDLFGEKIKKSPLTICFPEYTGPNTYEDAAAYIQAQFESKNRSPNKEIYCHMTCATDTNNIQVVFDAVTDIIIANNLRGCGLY
HSV augment: increases HSV replication in cells | 220,000 compounds, 0.005% hits | maximum fold increase | AID 1956 | HSV replication augmentation in cells, fold increase;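 active = peak rise of 1.5-fold or more in the series; tested in PC3 cells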;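 note: first round at 10 µM; read as green reporter fluorescence; hits show the peak of a series up to 25 µM; 1 = signal of infected wells without compound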
Insulin prom inh: TRM-6 insulin promoter activity inhibition | TRM-6 cells (human fetal islet line), insulin promoter-eGFP reporter, imaging; reporter expression induced with tamoxifen | AID 1273 | inhibition, % at 2 µM | 130,000 compounds, 0.9% hits;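 active = inhibition above the mean plus 3 SD, with well images judged a real hit on visual review, cut at about 60% in these data, passing the limit was not always enough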
Insulin prom inh cell count: also measured in Insulin prom inh; calls as there; normalized cell count, %; measured here: cell count, toxicity; reference of the scale not given here;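 cells exposed to compound for 48 h; stained nuclei by imaging scaled within each plate; lower means fewer cells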
HSV augment primary fold: also measured in HSV augment; calls as there; fold increase; compound at 10 µM; measured here: primary screen fold increase 10 uM; tested in PC3 cells;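 GFP signal in the first replicate; 1 = infected wells without compound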
An asterisk follows results filed as active.

A first look:
Results for NCC(O)(c1ccc(Cl)cc1)c1ccc(Cl)cc1 ?
PKD1 inh: 6; RGS16-Gao: 107; HSV augment: inactive; HSV augment primary fold: 0.81

How did Nc1c(-c2ccccc2)c(CN2CCOCC2)nn1-c1ccccc1 do in these assays?
GALR2 ag: -1.8; PKD1 inh: -7; RGS16-Gao: 107; HSV augment: inactive; HSV augment primary fold: 0.96

This part in full (from the top)
Results for NCC(O)(c1ccc(Cl)cc1)c1ccc(Cl)cc1 ?
PKD1 inh: 6; RGS16-Gao: 107; HSV augment: inactive; HSV augment primary fold: 0.81

How did Nc1c(-c2ccccc2)c(CN2CCOCC2)nn1-c1ccccc1 do in these assays?
GALR2 ag: -1.8; PKD1 inh: -7; RGS16-Gao: 107; HSV augment: inactive; HSV augment primary fold: 0.96

Results for CC(O)[C@H]1CNC(=O)C(=O)N1CC1(c2ccccc2)CC1 (stereo partly specified) ?
RGS16-Gao: 101; HSV augment: inactive; HSV augment primary fold: 0.94

What do the screens show for `O=C(OCCN=C1NS(=O)(=O)c2ccccc21)c1ccncc1`?
GALR2 ag: -3.7; PKD1 inh: 1; RGS16-Gao: 100; HSV augment: inactive; Insulin prom inh: 17; Insulin prom inh cell count: 152; HSV augment primary fold: 1

Results for CCc1nnc(NC(=O)CCNC(=O)c2ccccc2Cl)s1 ?
PKD1 inh: 4; RGS16-Gao: 99; HSV augment: inactive; Insulin prom inh: 32; Insulin prom inh cell count: 104; HSV augment primary fold: 1

How did Cc1cccc2[nH]c(SCC(=O)N3CCOCC3)nc12 do in these assays?
PKD1 inh: 0; RGS16-Gao: 105; HSV augment: inactive; HSV augment primary fold: 0.95

How did CC(=O)c1ccccc1NC(=O)COC(=O)c1ccccc1NC(=O)c1ccccc1 do in these assays?
GALR2 ag: -0.2; PKD1 inh: 3; RGS16-Gao: 102; HSV augment: inactive; HSV augment primary fold: 0.92

Results for Cc1ccc(SCc2nnc(N)s2)cc1 ?
GALR2 ag: -1.4; PKD1 inh: -3; RGS16-Gao: 104; HSV augment: inactive; Insulin prom inh: -16; Insulin prom inh cell count: 96; HSV augment primary fold: 0.91

Results for CCn1nnnc1NCc1cccn1C ?
GALR2 ag: -0.7; PKD1 inh: 4; RGS16-Gao: 84; HSV augment: inactive; HSV augment primary fold: 0.83

What do the screens show for `CCN1CCN(C(c2ccc(OC)c(OC)c2)c2nnnn2C(C)(C)C)CC1` (stereo unspecified)?
GALR2 ag: -1.3; PKD1 inh: 1; RGS16-Gao: 107; HSV augment: inactive; HSV augment primary fold: 0.88

How did CCCCSc1nc(N)c(NC(=O)c2ccco2)c(=O)[nH]1 do in these assays?
GALR2 ag: -0.2; PKD1 inh: -20; RGS16-Gao: 59; HSV augment: inactive; HSV augment primary fold: 1.1

Results for CCc1cccc(CC)c1NC(=O)c1ccccc1 ?
PKD1 inh: 2; RGS16-Gao: 102; HSV augment: inactive; Insulin prom inh: -41; Insulin prom inh cell count: 102; HSV augment primary fold: 1.3

What do the screens show for `O=C(NCC1CCCO1)c1ccc(CS(=O)(=O)Cc2ccc(F)cc2)o1` (stereo unspecified)?
GALR2 ag: -2.4; PKD1 inh: -2; RGS16-Gao: 113; HSV augment: inactive; Insulin prom inh: 50; Insulin prom inh cell count: 72; HSV augment primary fold: 1

What do the screens show for `CC(C)(C)S(=O)(=O)c1cnc2c(-c3ccc(Cl)cc3)cnn2c1N`?
GALR2 ag: -3.3; PKD1 inh: -1; RGS16-Gao: 100; HSV augment: inactive; HSV augment primary fold: 0.93

What do the screens show for `COC(C(=O)N/N=C(\C)CC(=O)Nc1ccc(Cl)cc1C)c1ccccc1` (stereo unspecified)?
PKD1 inh: 5; RGS16-Gao: 100; HSV augment: inactive; HSV augment primary fold: 1.1

How did CCc1c(C)sc(NC(=O)c2ccco2)c1C(=O)N1CCOCC1 do in these assays?
GALR2 ag: -2.0; PKD1 inh: -6; RGS16-Gao: 111; HSV augment: inactive; Insulin prom inh: 24; Insulin prom inh cell count: 119; HSV augment primary fold: 1.2

How did CC1CCCCC1NC(=O)Cn1c(CN2CCCCC2)nc2ccccc2c1=O (stereo unspecified) do in these assays?
GALR2 ag: -2.8; PKD1 inh: -14; RGS16-Gao: 101; HSV augment: inactive; Insulin prom inh: 31; Insulin prom inh cell count: 98; HSV augment primary fold: 1.2

What do the screens show for `COc1ccc(NC(=O)COC(=O)CCCN2C(=O)c3ccccc3C2=O)cc1Cl`?
GALR2 ag: -2.4; PKD1 inh: 6; RGS16-Gao: 67; HSV augment: inactive; Insulin prom inh: -8; Insulin prom inh cell count: 112; HSV augment primary fold: 1

How did CC(C)(C)c1nnc(N/N=C/c2ccccc2)n(N)c1=O do in these assays?
GALR2 ag: -0.3; PKD1 inh: -4; RGS16-Gao: 107; HSV augment: inactive; Insulin prom inh: -40; Insulin prom inh cell count: 125; HSV augment primary fold: 0.97

Results for CNS(=O)(=O)c1ccc2c(c1)NC(=O)C1CCCN21 (stereo unspecified) ?
GALR2 ag: 0.1; PKD1 inh: -7; RGS16-Gao: 92; HSV augment: inactive; Insulin prom inh: -103; Insulin prom inh cell count: 65; HSV augment primary fold: 1.1

What do the screens show for `Cc1ccc(NC(=O)CSc2nnc(CCC(=O)O)c(=O)[nH]2)cc1`?
RGS16-Gao: 99; HSV augment: inactive; HSV augment primary fold: 0.9

What do the screens show for `COc1ccc(C2C(CC(=O)O)=C(Nc3ccccc3)C(=O)N2c2ccccc2)cc1` (stereo unspecified)?
PKD1 inh: -7; RGS16-Gao: 103; HSV augment: inactive; Insulin prom inh: -24; Insulin prom inh cell count: 78; HSV augment primary fold: 0.87

Results for CC[C@@H](C)[C@@H](C(=O)N1CCN(C(=O)OC(C)(C)C)CC1)n1cc(CCC(=O)O)nn1 ?
RGS16-Gao: 102; HSV augment: inactive; HSV augment primary fold: 1.1

What do the screens show for `Cc1nn(-c2ccccc2)c2sc(C(=O)N3CCOCC3)cc12`?
GALR2 ag: -1.3; PKD1 inh: -3; RGS16-Gao: 104; HSV augment: inactive; Insulin prom inh: -27; Insulin prom inh cell count: 80; HSV augment primary fold: 0.97

Results for CCc1nnc(NC(=O)c2sc3nc4c(cc3c2N)CCCCC4)s1 ?
GALR2 ag: 1.5; PKD1 inh: -11; RGS16-Gao: 103; HSV augment: inactive; Insulin prom inh: 33; Insulin prom inh cell count: 89; HSV augment primary fold: 0.91

How did Cn1c(-c2ccc(F)cc2)cnc1SCC(=O)Nc1ccccc1N1CCOCC1 do in these assays?
GALR2 ag: 0.7; PKD1 inh: -7; RGS16-Gao: 100; HSV augment: inactive; Insulin prom inh: -14; Insulin prom inh cell count: 127; HSV augment primary fold: 0.86

What do the screens show for `Cc1ccc(C)c(OCC(=O)Nc2ccc3c(c2)OCO3)c1C`?
GALR2 ag: -2.6; PKD1 inh: -10; RGS16-Gao: 95; HSV augment: inactive; Insulin prom inh: -88; Insulin prom inh cell count: 67; HSV augment primary fold: 0.92

Results for Cc1cc(NC(=O)c2ccc(-c3ccccc3F)o2)no1 ?
PKD1 inh: 1; RGS16-Gao: 103; HSV augment: inactive; HSV augment primary fold: 0.74

What do the screens show for `Cc1[nH]n(-c2ccccc2)c(=O)c1/C=N\NC(=O)C1COc2ccccc2O1` (stereo unspecified)?
GALR2 ag: 0.2; PKD1 inh: -3; RGS16-Gao: 94; HSV augment: inactive; HSV augment primary fold: 0.88

What do the screens show for `CCNc1ccc(C(=O)NN=C2CCCC2)cc1[N+](=O)[O-]`?
PKD1 inh: -6; RGS16-Gao: 99; HSV augment: inactive; Insulin prom inh: -14; Insulin prom inh cell count: 81; HSV augment primary fold: 0.77

Results for N#CCCN(C(=O)CSc1nc(-c2ccccc2)cn1N)c1ccc(F)cc1 ?
GALR2 ag: 1.4; PKD1 inh: 0; RGS16-Gao: 101; HSV augment: inactive; Insulin prom inh: -31; Insulin prom inh cell count: 97; HSV augment primary fold: 1

Results for COC(=O)Nc1nc2c(C)cccc2s1 ?
GALR2 ag: -0.2; PKD1 inh: -10; RGS16-Gao: 104; HSV augment: inactive; Insulin prom inh: 33; Insulin prom inh cell count: 126; HSV augment primary fold: 0.99

What do the screens show for `COc1ccc2c(C)cc(SCC(=O)Nc3ccc(Cl)cn3)nc2c1`?
GALR2 ag: -1.3; PKD1 inh: 12; RGS16-Gao: 90; HSV augment: inactive; Insulin prom inh: -7; Insulin prom inh cell count: 104; HSV augment primary fold: 1.2

Results for Cc1ccc(-c2n[nH]c(=S)n2-c2ccccc2)cc1 ?
GALR2 ag: -1.1; PKD1 inh: -1; HSV augment: inactive; Insulin prom inh: -485; Insulin prom inh cell count: 90; HSV augment primary fold: 0.76

Results for COc1ccc(OC)c(NC(=O)CSc2nc3c(c(=O)n(C)c(=O)n3C)n2C)c1 ?
GALR2 ag: 0.2; PKD1 inh: -7; RGS16-Gao: 97; HSV augment: inactive; Insulin prom inh: -7; Insulin prom inh cell count: 80; HSV augment primary fold: 0.92

How did CCC(C(=O)OC)(C(=O)OC)c1ccc([N+](=O)[O-])cc1 do in these assays?
PKD1 inh: -1; RGS16-Gao: 100; HSV augment: inactive; HSV augment primary fold: 0.96

What do the screens show for `COCCn1nnnc1C(C(C)C)N(Cc1ccccc1)Cc1cc2cc(OC)ccc2[nH]c1=O` (stereo unspecified)?
GALR2 ag: -0.8; PKD1 inh: 0; RGS16-Gao: 107; HSV augment: inactive; HSV augment primary fold: 0.93

Results for S=c1[nH]nc(-c2ccc3ccccc3n2)n1-c1ccc2c(c1)OCCO2 ?
RGS16-Gao: 97; HSV augment: inactive; HSV augment primary fold: 1.1

Results for CCOC(=O)C1CCN(C(=O)c2ccc3c(SCC(=O)O)c4c(nc3c2)CCCC4)CC1 ?
PKD1 inh: 1; RGS16-Gao: 102; HSV augment: inactive; Insulin prom inh: 14; Insulin prom inh cell count: 135; HSV augment primary fold: 0.76

Results for CCOC(=O)c1sc(NC(=O)CCN2CCCCCC2)c(C(=O)OCC)c1C ?
PKD1 inh: -5; RGS16-Gao: 116; HSV augment: inactive; Insulin prom inh: 5; Insulin prom inh cell count: 76; HSV augment primary fold: 0.83

What do the screens show for `Cc1ccc(Cl)cc1NC(=S)NN`?
RGS16-Gao: 99; HSV augment: inactive; HSV augment primary fold: 1

Results for c1ccc2c(c1)cnc1ccccc12 ?
RGS16-Gao: 109; HSV augment: inactive; HSV augment primary fold: 0.87

How did CC(=O)OCC(=O)Nc1ccccc1C do in these assays?
PKD1 inh: -4; RGS16-Gao: 65; HSV augment: inactive; Insulin prom inh: 12; Insulin prom inh cell count: 88; HSV augment primary fold: 1

Results for Cc1ccc(C(=O)C2=C(O)C(=O)N(CCN(C)C)C2c2ccccn2)o1 (stereo unspecified) ?
GALR2 ag: -1.7; PKD1 inh: -3; Insulin prom inh: 19; Insulin prom inh cell count: 93

How did S=C(NCC1CCCO1)Nc1ccc(Cl)c(Cl)c1 (stereo unspecified) do in these assays?
PKD1 inh: 4; RGS16-Gao: 104; HSV augment: inactive; Insulin prom inh: -47; Insulin prom inh cell count: 153; HSV augment primary fold: 0.98

Results for CCO[C@@H]1OC(C(=O)N2CCN(Cc3ccccc3)CC2)=C[C@H](c2csc3ccccc23)[C@H]1CCCO ?
PKD1 inh: 7; RGS16-Gao: 99; HSV augment: inactive; HSV augment primary fold: 1.1

What do the screens show for `Cc1nc(SCc2ccccc2)c2oc3ccccc3c2n1`?
RGS16-Gao: 105; HSV augment: inactive; HSV augment primary fold: 1

Results for COc1cccc(NC(=O)COC(=O)c2nc(Cl)ccc2Cl)c1 ?
PKD1 inh: -4; RGS16-Gao: 100; HSV augment: inactive; HSV augment primary fold: 0.92

What do the screens show for `O=C(O)C(CC(=O)N1CCOCC1)NCc1ccccc1` (stereo unspecified)?
GALR2 ag: -1.0; PKD1 inh: -6; Insulin prom inh: 33; Insulin prom inh cell count: 93

Random excerpt: 4 records from the list, in no set order.
Results for CCc1nnc(NC(=O)CCNC(=O)c2ccccc2Cl)s1 ?
PKD1 inh: 4; RGS16-Gao: 99; HSV augment: inactive; Insulin prom inh: 32; Insulin prom inh cell count: 104; HSV augment primary fold: 1

Results for COc1cccc(NC(=O)COC(=O)c2nc(Cl)ccc2Cl)c1 ?
PKD1 inh: -4; RGS16-Gao: 100; HSV augment: inactive; HSV augment primary fold: 0.92

What do the screens show for `COc1ccc2c(C)cc(SCC(=O)Nc3ccc(Cl)cn3)nc2c1`?
GALR2 ag: -1.3; PKD1 inh: 12; RGS16-Gao: 90; HSV augment: inactive; Insulin prom inh: -7; Insulin prom inh cell count: 104; HSV augment primary fold: 1.2

Results for CC(O)[C@H]1CNC(=O)C(=O)N1CC1(c2ccccc2)CC1 (stereo partly specified) ?
RGS16-Gao: 101; HSV augment: inactive; HSV augment primary fold: 0.94

Bioassay records from PubChem.
